Menin-MLL FL inh – qHTS Assay for Inhibitors Targeting the Menin-MLL Interaction in MLL Related Leukemias: Competition With Fluorescein Labeled MLL-derived Peptide | 290,000 tested, under 10 active | AID 1766, 2009 | Fluorescence polarization, fluorescein-MLL peptide displacement from menin | FP activity change, % at 61.4 µM; inconclusive = falling polarisation curve, or a change in total fluorescence; inactive = total fluorescence flat and polarisation flat or rising; no compound was filed as active; the % refers to the polarisation; negative = inhibition;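 note: % of control where 0% means no effect; inhibitors lower the polarisation; unlabelled MLL peptide was the positive control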
PINK1 modulator – A Quantitative High throughput Screen to Identify Chemical Modulators of PINK1 Expression; Potency, µM (top dose mostly 76.6 µM), inactives show at the top dose activation (PINK1 increase), hits mostly activators; AID 624263, 2012; hit rate 0.2% among 410,000; PINK1 immunofluorescence, high-content cytometry, 24 h; active = well fitted activation curve with a large enough effect; inconclusive = small, poorly fitted or top-dose-only effect; inactive = flat fitted curve, though single readings scatter; cell line not stated here;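 note: potency is the fitted concentration of half-maximal effect; % of control where 0% means no effect; nearly all actives have a fitted effect of over 65% in size; a mitochondrial uncoupler was the plate control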
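Stable cell line, 250 cells/well, 12 h attachment; compounds pinned at 5 concentrations, 24 h; CCCP control. Fixed with nuclear dye, primary antibodies 12 h at 10 degrees C, secondary plus cell stain; laser-scanning cytometer read.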
TRPV1 potentiator – HTS Assay for Compounds that Act as Potentiators of the Vanilloid Receptor 1 | Transient receptor potential cation channel subfamily V member 1 (Homo sapiens), Q8NER1 | TRPV1-expressing cells, Fluo-8 calcium influx, capsaicin EC20 potentiation; host cell line not named in the record; control for the full effect not named in the record | potentiation, % at 8.33 µM | hit rate 0.02% among 320,000 | AID 540277, 2011; active means potentiation above 80%; inconclusive means 30% to 80%; inactive means below 30%; note: 0% is about no effect
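Cells expressing TRPV1 were dye-loaded with Fluo-8 and read kinetically: 10 s baseline, 3 min after compound (agonist portion), then 2 min after EC20 capsaicin (allosteric enhancer portion). Calcium-bound dye fluorescence at 480/520 nm.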
TRPML1 agonist – qHTS for Agonists of the Human Mucolipin Transient Receptor Potential 1 (TRPML1); activation, % (concentration not given with the values); Mucolipin-1 (Homo sapiens), Q9GZU1; hit rate 0.12% among 410,000; TRPML1-expressing cells, Ca2+ dye fluorescence, FDSS; host cell line not named in the record; reference of the full effect not given here; in the data active = activation above about 50%; inconclusive = about 30% to 50%; inactive = below about 30%; note: 0% is about no effect; the text of the record puts the active cut at 80%
Target sequence (Q9GZU1 whole entry, looked up): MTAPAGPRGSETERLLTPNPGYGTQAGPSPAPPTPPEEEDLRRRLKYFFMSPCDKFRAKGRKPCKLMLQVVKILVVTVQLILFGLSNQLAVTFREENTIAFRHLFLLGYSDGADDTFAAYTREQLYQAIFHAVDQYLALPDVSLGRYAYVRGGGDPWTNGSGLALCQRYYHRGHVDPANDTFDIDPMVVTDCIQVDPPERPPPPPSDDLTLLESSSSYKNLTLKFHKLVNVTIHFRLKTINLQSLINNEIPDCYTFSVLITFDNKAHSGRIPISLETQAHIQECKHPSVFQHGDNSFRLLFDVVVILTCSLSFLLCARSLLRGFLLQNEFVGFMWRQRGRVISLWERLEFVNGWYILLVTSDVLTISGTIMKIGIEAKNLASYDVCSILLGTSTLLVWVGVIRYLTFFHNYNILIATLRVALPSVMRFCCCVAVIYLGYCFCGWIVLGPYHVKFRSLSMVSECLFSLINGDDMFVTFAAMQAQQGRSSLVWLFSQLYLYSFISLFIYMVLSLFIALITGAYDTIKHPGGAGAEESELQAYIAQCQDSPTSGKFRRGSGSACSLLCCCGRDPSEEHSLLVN
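Tet-induced TRPML1-DL cells, 1,500 per well, cultured overnight, were loaded with a no-wash Ca2+ dye for 45–90 min. Calcium fluorescence was recorded on the FDSS for 110 s after compound addition, before the EC80 agonist (4 uM 54-4) was added.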
ClpP mod – qHTS Assay for Activators of ClpP; hit rate 1.9% among 340,000; ATP-dependent Clp protease proteolytic subunit (Bacillus subtilis (strain 168)), P80244; purified B. subtilis ClpP, FRET peptide cleavage, 20 min; Potency, µM (top dose mostly 57.5 µM), for the others: at the top dose activity change, negative = active; active = well fitted falling curve with a large enough effect; inconclusive = small, poorly fitted or top-dose-only effect; inactive = no such curve, though single readings can be large or run the other way; note: potency is the fitted concentration of half-maximal effect; the source files actives as falling curves though it sought activators and does not explain the sign; nearly all actives have a fitted effect of over 65% in size; many hits overshoot -100%
Target sequence (P80244 whole entry, looked up): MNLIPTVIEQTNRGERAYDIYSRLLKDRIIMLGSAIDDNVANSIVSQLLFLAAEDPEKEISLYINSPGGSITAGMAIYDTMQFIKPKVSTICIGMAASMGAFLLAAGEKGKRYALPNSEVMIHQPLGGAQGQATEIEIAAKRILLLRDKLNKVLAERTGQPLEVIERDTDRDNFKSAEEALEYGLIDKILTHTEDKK
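Buffer: 100 mM Tris/HCl pH8, 100 mM KCl, 0.05% low protease BSA, 2.5% glycerol, 0.01% Tween-20. ClpP 10 microg/mL final; 20 min RT; delta FRET normalized to ADEP and DMSO controls.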
Sfp PPTase inh – qHTS Assay for Inhibitors of Bacillus subtilis Sfp phosphopantetheinyl transferase (PPTase); Potency, µM, without a hit: max response, negative = inhibition, usual class: inhibitors; 4'-phosphopantetheinyl transferase ffp (Bacillus subtilis), Q9F4F7; hit rate 3.5% among 310,000; Biochemical Sfp PPTase activity, qHTS; active = well fitted inhibition curve with a large enough effect; inconclusive = small, poorly fitted or top-dose-only effect, or another doubt; inactive = no such curve, though single readings can be large or run the other way;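 note: the enzyme is Sfp with the accession as filed and its product quenches rhodamine fluorescence; potency is the fitted concentration of half-maximal effect; 0% = enzyme reaction without inhibitor and -100% = no enzyme wells; top concentration of the series not given in the record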
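Compounds were incubated with enzyme (final 15 nM) for 15 min at room temperature before substrate addition started the reaction. Fluorescence at 525 nm excitation, 598 nm emission was recorded immediately and after 30 minutes.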
TRPML1 inh – qHTS for Inhibitors of the Human Mucolipin Transient Receptor Potential 1 (TRPML1); Mucolipin-1 (Homo sapiens), Q9GZU1; activity change, negative = inhibition, % (no concentration beside the values); AID 624415, 2012; TRPML1-inducible cells, Ca2+ dye fluorescence, FDSS; active compounds read low; inhibition of EC80 agonist-evoked calcium signal; hit rate 0.02% among 390,000; in the data active means activity change below about -50%; inconclusive means about -30% to -50%; inactive means above about -30%;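 note: stimulus is agonist 54-4 at its EC80 concentration; % is set by controls: 0 for no effect and ±100 for the full control effect; compound concentration not given in the record; the text of the record puts the active cut at -80%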
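Tet-induced TRPML1-DL cells loaded with Ca8 no-wash calcium dye were read kinetically on FDSS. Compound addition was followed by EC80 agonist 54-4 (4 uM final); inhibition was read over 110 s.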
Active calls of the source: *; ? = inconclusive; . = not tested or not shown; & = joins results of further samples; [ ] = dose if it differs, or a comment.

cpd	Compound	Menin-MLL FL inh	PINK1 modulator	TRPV1 potentiator	TRPML1 agonist	ClpP mod	Sfp PPTase inh	TRPML1 inh
1	CCN(CC)CCNC(=O)COc1ccc(OC)cc1	0.1	0.0%&0.8%	-14&6	0.7&0.8	-0.4%&-1.2%	7%&-4%&36%	5&-9
2	O=C(N=C1N=C2C=CC=CN2Cc2ccccc21)c1ccc(S(=O)(=O)N2CCOCC2)cc1	-0.2	0.8%	4	0.5	-10%	6%	-5
3	C=C1C=C(C(F)F)n2ncc(C(=O)NCc3ccc(F)cc3)c2N1	.	-0.2%	.	-0.6	-3.3%	.	.
4	COC(=O)CCC(=O)Oc1ccc(OC(=O)CCC(=O)OC)cc1	3.4	.	?	.	.	5%	.
5	Cc1ccc(NC(=O)CSc2ncnc3ccccc23)cc1S(=O)(=O)N1CCCCC1	.	-2.0%	2	0.4	0.9%	20%	7
6	COC/C=C/C1=CC2=CC(=O)C(C)(OC(=O)c3ccco3)C(=O)C2=CO1 (configuration not stated)	?	.	17	.	.	56µM*	.
7	CCCc1cc(N2CCCC(C(=O)Nc3c(OC)cccc3OC)C2)n2ncnc2n1 (configuration not stated)	4.8	6.4%[38.3 µM]	-6	0.0	-3.0%	-14%	-25
8	COC(=O)c1c(C)sc(-c2c(-c3ccc4c(c3)OCCO4)[nH]c3[nH]c(=O)[nH]c(=O)c23)c1O	.	5.4%	.	4.6	-0.7%	.	4
9	O=C(NN(CC(O)COc1ccccc1)CC(O)COc1ccccc1)c1ccccc1 (configuration not stated)	1.7	0.0%	10	0.5	.	9%	3
10	COc1ccc(CCN2CC(C(=O)NCc3nc(C)c(C)s3)CCC2=O)cc1 (configuration not stated)	-0.2	-2.7%	13	3.6	-3.4%	-3%	6
11	COc1ccc(-c2cc(=O)c3ccc(O)cc3o2)cc1	2.8&-4.7	1.3%	.	1.4	-28%	-10%&-7%	18
12	N#CCC(=O)N1CCN(C=O)CC1	-2.0	-0.7%	1	-0.1	1.0%	17%	1
13	CCCCC(=O)Nc1cccc(NC(=O)CC)c1	1.1	2.5%	-1	-0.5	1.3%	-1%	1
14	C(#CSCc1ccccc1)SCc1ccccc1	.	6.2%	.	0.0	1.2%	.	-3
15	CC(=O)Nc1cc(-c2ccc(N3CCN(C)CC3)cc2)cn2c(-c3cccc(C(C)=O)c3)cnc12	.	21%	.	2.3	-1.4%	.	11
16	CS(=O)(=O)CCC(C(=O)N1CCOCC1)N1C(=O)c2cc(Cl)c(Cl)cc2C1=O (configuration not stated)	1.4	0.9%	?	-0.2	-0.3%	6%	6
17	COc1ccccc1-c1nc2n(n1)C(c1ccc(Cl)cc1)C(C(N)=O)=C(C)N2 (configuration not stated)	2.0	1.2%	4	-1.0	-7.3%	-12%	-10
18	COc1ccc(-c2cc(=O)c3c(C)cc(O)cc3o2)cc1	.	-3.0%	.	0.0	-29%	.	-20
19	Cc1ccc(NC(=O)C(=O)NN=C2CCCC2)cc1C	2.2	-0.7%	0	-0.2	.	16%	7
20	Cc1ccc(CNC(=O)c2cc3c(=O)n4cccc(C)c4nc3n(CC3CCCO3)c2=N)cc1 (configuration not stated)	6.4	.	6	.	.	16%	.
21	O=C(CCNC(=O)c1ccccc1)NNC(=O)c1ccccc1Br	.	0.9%	.	-0.6	-11%	.	-4
22	CCCCN1C(=O)C(=O)NC[C@@H]1C(C)CC (some centres not stated)	4.4	-0.4%	-26	-0.8	0.4%	3%	19
23	OCC(O)C1OCOC(C(O)CO)C1O (configuration not stated)	.	0.6%	.	0.1	-1.3%	.	7
24	c1ccc2c(CSc3ncnc4nc[nH]c34)cccc2c1	3.0	4.4%	-11	2.3	.	10%	10
25	N/N=C1\CCCc2c1[nH]c1ccc([N+](=O)[O-])cc21	0.9	2.1%	-4	0.5	.	-10%	0
26	COC(=O)c1cc(S(=O)(=O)NCc2cccc(OC)c2)cn1C	-2.7	-0.7%	-53	0.8	-1.6%	8%	-12
27	Nc1ccn([C@@H]2O[C@H](C(=O)Nc3ccc(Oc4ccccc4)nc3)[C@@H](O)[C@H]2O)c(=O)n1	.	-0.4%	.	-0.5	0.2%	.	.
28	O=c1n(-c2ccccc2)c(=O)n2n1CCCC2	0.5	1.1%[38.3 µM]	14	0.3	0.7%	8%	12
29	Clc1ccccc1-c1cc(NCc2cccnc2)ncn1	-6.1	0.9%	.	.	.	11%	.
30	COc1cccc(C(c2sc3nc(C)nn3c2O)N2CCc3ccccc3C2)c1 (configuration not stated)	-0.5	2.2%	3	0.3	0.1%	32µM*	-2
31	COc1ccc(/C=C/C(=O)NNc2c(F)c(F)cc(F)c2F)cc1OC	1.5	-0.5%	-17	1.2	-24%	8%	-5
32	O=C(O)c1ccccc1-c1ccccc1C(=O)NCc1ccccc1F	-5.5	-0.4%	-3	0.0	8.9µM*	11%	-21
33	CCCCN(C(=O)c1cc(CC)c(C)s1)c1c(N)n(CC(C)C)c(=O)[nH]c1=O	4.6	-0.9%	-2	0.8	-2.4%	8%	16
34	O=C(CN1C(=O)COc2ccc(S(=O)(=O)N3CCCC3)cc21)NCCc1ccc(Cl)cc1	.	3.3%	.	2.1	3.1%	.	?
35	CC1(C)OC2C(CO)OC(n3cnc4c(=S)nc(N)[nH]c43)C2O1 (configuration not stated)	.	-0.2%	.	0.1	-5.3%	.	.
36	COc1ccc(CNc2ccnc(-c3ccccc3Cl)n2)c(OC)c1	-4.5	0.2%	.	.	.	-20%	.
37	CN(CC(=O)NCc1cccs1)S(=O)(=O)c1cccc2cccnc12	1.4	4.8%	9	0.2	-1.8%	16%	-10
38	COc1ccc(CCNc2oc(-c3ccc(C)cc3)nc2C#N)cc1OC	1.6	-0.7%	-21	2.8	4.2%	2%	12
39	Cc1nn2c(=O)cc(COC(=O)c3ccc(C(C)(C)C)cc3)nc2s1	.	1.9%	.	-0.7	-0.4%	.	16
40	O=C1NC(NS(=O)(=O)c2ccc(Cl)cc2)(C(F)(F)F)C(=O)N1c1ccccc1 (configuration not stated)	-3.8	1.4%	-11	-0.4	169%	17%	18
41	C[C@@H]1CC=C[C@H]2[C@H]1C(=O)N(Cc1ccccc1)[C@H]2c1cccc([N+](=O)[O-])c1	2.3	1.8%	13	1.7	0.2%	-12%	26
42	Cn1c(=N)n(CC(O)c2cccs2)c2ccccc21 (configuration not stated)	-2.2	-1.3%	13	-0.4	.	11%	-2
43	O=C(NCc1ccco1)C1CCN(c2ccc(N3CCOCC3)nn2)CC1	-0.5	-0.2%	-8	-0.9	-0.4%	-15%	-4
44	NC(=O)C1CC(=O)N(c2ccc(OCC(=O)Nc3ccccc3F)cc2)C1 (configuration not stated)	.	3.1%	11	0.0	0.4%	.	-8
45	Cc1ccc(S(=O)(=O)N2CCN(C(=O)N3CCOCC3)CC2)c(C)c1	3.6	-0.8%	-1	0.7	-0.6%	12%	-1
46	Cc1nc2nc(NC(=O)c3ccc(C(C)(C)C)cc3)[nH]n2c(=O)c1Cl	.	0.4%	.	1.0	0.2%	.	27
47	CC1(C)CC(=O)C(C=NCCN2CCN(C(=O)CC3CCCC3)CC2)=C(O)C1	1.6	2.4%	7	0.9	?	12%	30
48	CS(=O)(=O)c1ccc(-c2cccc(NC(=O)COc3ccc(Cl)cc3)c2)nn1	-0.1	1.5%	13	-0.2	-3.7%	9%	5
49	Cc1cc(C)c(Cn2c(=O)n(CCCCCC(=O)NCc3ccc4c(c3)OCO4)c(=O)c3sccc32)c(C)c1	.	0.8%	.	-0.3	0.5%	.	1
50	CN(C)c1nc(NCc2ccccc2)nc(SCC(=O)Nc2ccccc2Cl)n1	-2.6	0.9%	1	3.7	2.8%	1%	20
51	CC(NC(=O)Nc1cccc([N+](=O)[O-])c1)(C(F)(F)F)C(F)(F)F	7.2	?	-14	-0.1	1.0%	-4%	-1
52	Cc1nc2c(O)c3c(c(O)c2nc1C)C1C=CC3CC1	.	-1.3%	.	0.4	0.8%	.	-3
53	COc1ccc(C(=O)COC(=O)CNS(=O)(=O)c2ccc(C)cc2)cc1	-0.3	-1.7%	?	-0.2	1.5%	8%	11
54	CC(=O)Nc1ccc2c(c1)C(=O)N(c1ccc(C)cc1)C2=O	-0.9	-1.9%	19	-0.7	-2.0%	12%	-8
